NPYLR7 agonist: activates Aedes aegypti NPYLR7 receptor. HEK293T NPYLR7/Galpha15, GCaMP6s calcium fluorescence. activation, % at 10 µM. 270,000 tested, 0.15% active; in the data active = activation above about 40%;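 note: 0% = vehicle and 100% = reference agonist at the receptor; some compounds past the cut are filed as inactive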
NPYLR7 agonist max-min: further read-out of NPYLR7 agonist, marked with its call; activation, %; measured here: Max-Min RFU normalised activation; some inactives read as strong as hits;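 span of the calcium signal over five minutes; 0% = vehicle and 100% = native peptide agonist; compound fluorescence can raise it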
Starred values were filed as active, the others as inactive; & = joins results of further samples. This is a subset; count on the stated rates, not on these rows.

Compound	NPYLR7 agonist	NPYLR7 agonist max-min
CC1(C)CC(N2CCCC2)=CC(=[N+]2CCCC2)C1	7	15
O=C(c1cccc2c1OCC2)N1CCN(Cc2ccccc2CO)CC1	6	-4
O=C(CN1CCOC1=O)NC1CC(=O)N(CCc2cccc(Cl)c2)C1 (stereo unspecified)	-5	-10
Cc1cc([N+](=O)[O-])cc(S(=O)(=O)N(Cc2ccccc2F)C2CC2)c1C	-3	1
COc1cccc(C(=O)N(CCN2CCOCC2)Cc2nccn2Cc2ccc(F)cc2)c1	3	11
O=C(CN1CCCC2(CCc3ccccc32)C1)N1CCN(c2ccccc2)CC1 (stereo unspecified)	-3	5
CC1CCCN(CCN2CCC(C(O)c3ccccc3)CC2)C1 (stereo unspecified)	5	1
O=C(Cc1ccccc1)Nn1c(=S)[nH]c2ccccc2c1=O	-4	-7
COc1cc(C=NNC(=O)c2sc(N)c(C#N)c2C)ccc1OCc1ccc(Cl)cc1Cl	0	-3
O=S1(=O)NC(=NCCC(c2ccccc2)c2ccccc2)c2ccccc21	9	8
O=c1ccc2cc(S(=O)(=O)NCc3ccc4c(c3)OCO4)ccc2o1	1	0
Cn1cc(C(CC(=O)NCc2ccc3c(c2)OCO3)c2ccccc2C(F)(F)F)c2ccccc21 (stereo unspecified)	33	31
COc1ccc(S(=O)(=O)NCc2ccco2)c(C)c1C	8	11
CN=c1scc(-c2ccc3c(c2)-c2ccccc2C3)n1C	0	-2
N#Cc1cccc(C(=O)NCc2cccnc2OC2CCCC2)c1	-3	-3
CN(C1CCCCC1)S(=O)(=O)N1CCCC(c2nc(-c3cccc(F)c3)no2)C1 (stereo unspecified)	7	1
N#CCSc1nnc(-c2ccc3c(c2)OCO3)o1	-1	6
CCOc1ccc(S(=O)(=O)NCc2ccco2)cc1C(C)(C)C	6	0
CCCCn1c(CN(C)Cc2ccc3nsnc3c2)cnc1S(=O)(=O)CC	-2	-7
Cc1cn2c3c(=O)n(C)c(=O)n(C)c3nc2n1-c1ccccc1O	-2	6
CCc1nc2ccc(C(=O)Nc3ccc(NC(C)=O)cc3)cn2c1N(C)Cc1ccc(N(C)C)cc1	2	-8
O=C(c1ccccc1Cl)N1CCc2nc(-c3ccccc3)nc(N3CCCC3)c2C1	19	12
CCCN(CC(=O)N1CC(=O)N(c2ccc(Cl)cc2)C1)C(=O)Nc1c(C(C)C)cccc1C(C)C	6	17
CC(=O)NCC1=CCCN(CCn2cccc2)C1	4	9
COc1ccc(C(CC(=O)N2CCC(Cc3ccccc3)CC2)c2cn(C)c3ccccc23)cc1OC (stereo unspecified)	4	14
c1ccc(-c2nccc3c2nnc2c(-c4ccccc4)cnn23)cc1	-8	-14
CC1(C(=O)NS(=O)(=O)Cc2cccc(Cl)c2)CCN1C(=O)Cc1ccc(Cl)cc1Cl (stereo unspecified)	3	-1
COc1ccc2sc(N(Cc3ccccn3)C(=O)c3ccc([N+](=O)[O-])s3)nc2c1	-7	-12
COc1ccc(OC)c(-c2cc3ccc4c(c3oc2=O)CN(Cc2cccnc2)CO4)c1	3	4
Cc1cc(=O)c(C(=O)N2CCCC(N(C)Cc3ccccc3)C2)c[nH]1 (stereo unspecified)	6	4
N=C(N)n1cccn1	-14	-15
COc1ccc(OC)c(NC(=O)CC(=O)N2CC[C@@H](O)C2)c1	1	5
Cc1c(-c2ccccc2)[nH]c2c(CNc3nccc(N)n3)cc(Cl)cc12	0	-3
Cc1cc(C)c(NC(=O)c2ccc(C)c(F)c2)c(C)n1	2	5
COc1cccc(-n2c(-c3ccc(Cl)cc3)cc(C(=O)N3CCN(c4cccc(C(F)(F)F)c4)CC3)c2C)c1	1	8
Cc1ncnc(N2CCN(C(=O)C3CC4(CCNCC4)CN3)CC2)c1C (stereo unspecified)	17	8
CCCCc1nn(-c2ccccc2)[n+](-c2ccccc2)n1	2	-2
Cc1c(C)n2c3c(=O)n(C)c(=O)n(C)c3nc2n1-c1cccc(Cl)c1	6	6
Cc1cccc(-c2cccc(NC(=O)C3CCCN(C(=O)c4ccoc4)C3)c2)c1 (stereo unspecified)	9	-3
CCOC(=O)c1nn(-c2ccc(C)cc2)c(=O)cc1OS(=O)(=O)c1cc(C)c(C)cc1C	-5	1
O=S(=O)(c1ccc(Cl)cc1)N1CCCN(c2nc3ccccc3nc2-c2ccccc2)CC1	10	9
O=c1nc(/C=C/c2ccc(O)cc2)cc(C(F)(F)F)[nH]1	14	9
COCCOc1nc(-c2cccc(OC)c2)n(-c2ccc(NC(=O)c3ccc([N+](=O)[O-])cc3)cc2)n1	0	13
CCc1ccccc1NC(=O)N1CCSC1c1cccc(Oc2ccccc2)c1 (stereo unspecified)	-2	4
O=S(=O)(Nc1cc(Cl)ccc1O)c1cc(Br)ccc1Br	-6	-4
Cc1c(C)c(C)c(C(=O)OCC(N)=O)c(C)c1C	11	4
O=C1CC(c2ccccc2)CC2=Nc3ccccc3NC(c3ccc(Cl)cc3)C12 (stereo unspecified)	-2	-7
COc1ccc(NC(=O)N2CC(=O)N3CCc4c(F)cccc4C3C2)c(C)c1 (stereo unspecified)	19	12
CCOC(=O)C1CCCN(C(=O)Cc2cc(-c3cc4ccccc4o3)on2)C1 (stereo unspecified)	3	10
N#CCc1ccc(NC(C(=O)NC2CC2)c2ccc(F)cc2)cc1 (stereo unspecified)	4	2
CN(Cc1cccc2cnccc12)C(=O)c1cn(C2CCCCC2)nn1	2	-1
COc1cc2c(cc1O)C(c1ccc(-n3cncn3)cc1)CC(=O)N2 (stereo unspecified)	10	6
Cc1ccc(C)c(OCC(=O)NCCc2nc(-c3ccccn3)no2)c1C	7	2
CC(C)c1ccc(NC2CCCN(C(=O)c3cnsn3)C2)cc1 (stereo unspecified)	-5	-9
Cc1ncc(/C=C/C(=O)NC(C)(C)C(=O)Nc2ccccc2)s1	-6	-7
CSc1nnc2n(-c3ccc(C)cc3)c(=O)c3c4c(sc3n12)CCCC4	-2	-3
Cn1c(=O)c2cc(C(=O)NC(C)(C)C)n(Cc3ccccc3)c2n(C)c1=O	-3	-4
Cc1ccc(/C(=C\CN2CCCC2)c2ccccn2)cc1	-4&0&-3	-11&-7&19
CC(C)Oc1ncc(C(=O)Nc2c[nH]ccc2=O)cc1Cl	6	4
C(=C\CSc1ncn[nH]1)/CSc1ncn[nH]1	12	12

A draw from above in order of SMILES length, smallest number first:
Compound	NPYLR7 agonist	NPYLR7 agonist max-min
O=S(=O)(Nc1cc(Cl)ccc1O)c1cc(Br)ccc1Br	-6	-4
CCCCn1c(CN(C)Cc2ccc3nsnc3c2)cnc1S(=O)(=O)CC	-2	-7
CSc1nnc2n(-c3ccc(C)cc3)c(=O)c3c4c(sc3n12)CCCC4	-2	-3
COc1cccc(C(=O)N(CCN2CCOCC2)Cc2nccn2Cc2ccc(F)cc2)c1	3	11
Cc1cc([N+](=O)[O-])cc(S(=O)(=O)N(Cc2ccccc2F)C2CC2)c1C	-3	1
CCCN(CC(=O)N1CC(=O)N(c2ccc(Cl)cc2)C1)C(=O)Nc1c(C(C)C)cccc1C(C)C	6	17
COc1cccc(-n2c(-c3ccc(Cl)cc3)cc(C(=O)N3CCN(c4cccc(C(F)(F)F)c4)CC3)c2C)c1	1	8

(more compounds)
Compound	NPYLR7 agonist	NPYLR7 agonist max-min
CC(C)CNc1ccc2c(n1)C(=O)N([C@H](C)C(=O)NCC1CCOCC1)C2	10	7
CCOC1CCCN(C(=O)Nc2ccc(C)cc2)C1 (stereo unspecified)	-2	-1
COc1cccc(Cn2c(C3CCCCC3)n[nH]c2=O)c1	1	-3
CCCCN(C)C(=O)c1sc(=O)n(Cc2c(C)noc2C)c1C	-9	-7
COc1ccc(N2C(=O)/C(=C\c3ccc[nH]3)N(C)C2=S)c([N+](=O)[O-])c1	46*	43*
COC(=O)c1c(S(=O)(=O)NCc2ccc(Cl)cc2)sc2c1CCN(C(=O)C(C)C)C2	4	1
CCCc1c(C)nn(-c2ccc(C(=O)Nc3ccc(C)cc3)cc2)c1C	-7	-13
COc1ccc(/C=C(\C#N)c2[nH]nc(N)c2C#N)cc1Br	-2	-4
CCCN1C(=O)C(CCC(=O)N2CCC(Cc3ccccc3)C2CC(C)C)NC(=O)c2ccccc21 (stereo unspecified)	0	6
O=C(c1cc(C(F)(F)F)cc(C(F)(F)F)c1)N1CCC(c2ccccc2)CC1	-2	-4
O=C(c1ccc(O)cc1)C1CCN(C(=O)c2ccccc2-n2cccn2)CC1	0	-1
C=CCN1C(=O)NC(c2cccc(Cl)c2)C2=C1CN(CC(=O)N1CCN(Cc3ccc4c(c3)OCO4)CC1)C2=O (stereo unspecified)	-2	4
CCN1CCCC1CNC(=O)c1cc(Cl)ccc1OC1CCN(C2CCCC2)CC1 (stereo unspecified)	-4	-13
CCOc1ccccc1Nc1cc(C(=O)OC)nc2c(OC)cccc12	6	2
CC(=O)Nc1ccc(S(=O)(=O)NC2CCc3ccc(F)cc32)cc1 (stereo unspecified)	8	4
CC1(C(=O)NS(=O)(=O)c2ccc(C#N)cc2)CCN1C(=O)CC1CCCC1 (stereo unspecified)	-1	-7
Cc1cccc(NC(=O)NCc2ccc(CN3CCOCC3)cc2)c1	-1	-4
O=[N+]([O-])c1ccccc1C1c2cccn2CCCN1Cc1ccco1 (stereo unspecified)	19	18
CC1=NN(c2ccccc2)C(=O)C1=Cc1c(O)n(-c2cc(C)cc(C)c2)c(=O)[nH]c1=O	-16	-18
Cc1nnc(SCCCNC(=O)C2CCC(=O)N(CCN3CCOCC3)C2)s1 (stereo unspecified)	6	3
CC(C)(C)c1ccc(-c2nnc(SCC(N)=O)o2)cc1	-1	-9
Cc1n[nH]c(=O)c2c(NC(=O)COC(=O)c3ncc(Cl)c(Cl)c3Cl)oc(C)c12	6	10
CC(CNC(=O)C(=O)Nc1ccc2c(c1)CCC2)N1CCN(C)CC1 (stereo unspecified)	15	13
Cc1cccc(NC(=O)c2ccc(C)c(S(=O)(=O)Nc3cccc(C)c3)c2)c1	-22	-26
CNC(=O)CN(C(=O)c1ccco1)[C@@H]1C[C@@H]2CO[C@H](c3ccccc3)C[C@@H]2C1	28	27
c1ccc(CN2CN(CCN3CCOCC3)Cn3c2nc2ccccc23)cc1	0	-3
COc1ccc(C2CCCN2C(=O)CCN=C2NS(=O)(=O)c3ccccc32)cc1 (stereo unspecified)	1	1
O=c1n(Cc2ccon2)c2ccccc2n1Cc1ccon1	5	2
CCCc1nc(N2CCN(C(=O)Nc3cccc(C#N)c3)CC2)c2c(-c3ccccc3)noc2n1	18	2
COCCNC(=O)c1c(N)n(/N=C\c2ccc(C(=O)OC)cc2)c2nc3ccccc3nc12	-5	-7
Cc1nc2ccc(F)cc2n1C1CCN(C(=O)C(F)F)CC1	6	2
Cc1cc(C)c(NC(=O)Cn2ccccc2=O)c(Cl)c1	1	-1
O=C(Nc1c2c(nn1-c1ccc([N+](=O)[O-])cc1)CSC2)C1CCCC1	-2	-4
O=C(Nc1cccc(C2SCC(=O)N2c2ccccc2F)c1)Nc1ccc(Cl)cc1Cl (stereo unspecified)	4	14
OCCN(Cc1ccsc1)C1C=CCCC1 (stereo unspecified)	16	15
CCCN1CCC(Nc2cc(C)nc3ccccc23)CC1	-2	-2
O=C(c1ccc2c(c1)C(=O)N(C1CC1)C2=O)N(Cc1ccccc1)C1CC1	-1	-1
CC(C)NC(=O)COC(=O)c1cc2c(cc1Cl)N1CCCCCC1=NS2(=O)=O	2	1
O=C(CNC(=O)/C=C/c1ccco1)N=Nc1c(O)[nH]c2ccc([N+](=O)[O-])cc12	-1	-6
CC(C)c1cc(-c2nc(C3(c4ccc(F)cc4)CCOC3)no2)nc(N)n1 (stereo unspecified)	-7	-10

Quoted at random: 2 compounds from above.
Compound	NPYLR7 agonist	NPYLR7 agonist max-min
COc1ccc(C2CCCN2C(=O)CCN=C2NS(=O)(=O)c3ccccc32)cc1 (stereo unspecified)	1	1
O=C(c1ccc2c(c1)C(=O)N(C1CC1)C2=O)N(Cc1ccccc1)C1CC1	-1	-1

More records.
Compound	NPYLR7 agonist	NPYLR7 agonist max-min
COC(=O)c1cc2n(n1)CCN(C(=O)c1cc3cc(OC)ccc3[nH]1)C2	-4	-6
Cc1cccc(OCc2nc(CNC(C)C)cs2)c1	29	26
Nc1nsc(N2CCN(C(=O)c3ccc(Br)cc3O)CC2)n1	-1	-1
Cc1ccc(Oc2cnn(C)c(=O)c2Nc2ccc(C(=O)NCC3CCCO3)cc2)c(C)c1 (stereo unspecified)	-1	9
Cc1cc(C)c2c(C)c(C(=O)NCC(C)(C)NS(C)(=O)=O)sc2n1	0	-1
CCOC(=O)N1CCN(Cc2nc(N(C)Cc3ccc(OC)c(OC)c3)c3ccccc3n2)CC1	18	7
COC(=O)c1ccc(CNC(=O)C2CCC(=O)N(Cc3ccccn3)C2)cc1 (stereo unspecified)	7&4	5&3
CCOC(=O)c1c(NC(=O)CCCCC(=O)OC)sc2c1Cc1ccccc1-2	15	10
CCN(C(=O)CSc1nnc(Cc2cccs2)n1C1CC1)C1CCCCC1	8	7
CCc1ccc(S(=O)(=O)N2CCN(Cc3nnnn3-c3ccc(C)cc3)CC2)s1	-2	-3
